Resorufin autofl: compounds fluorescent in resorufin spectral region; Compound fluorescence, resorufin region 547/598 nm, buffer; active compounds read high; max dye-equivalent concentration, M; 0.04% of 59,000 active; active = above 10 nM dye equivalent; inconclusive = 1 to 10 nM; inactive = 1 nM or less; a few of its hits are not listed in these tables; further: highest value over a series up to 38 µM
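Compounds in 100 mM Tris buffer, pH 8.0, incubated 15 min at room temperature, then read with 547 nm excitation and 598 nm emission filters. Fluorescence was converted to dye-equivalent concentration using an on-plate six-point resorufin standard curve.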
A488 fluor: compound fluoresces in the A488 spectral region | AID 591 | max dye equivalency, M | compound autofluorescence, A488 spectral region, dye equivalency; active compounds read high | 0.1% of 59,000 active; active = above 10 nM dye equivalent; inconclusive = 1 to 10 nM; inactive = 1 nM or less; about half of its hits are not listed in these tables;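 further: highest value over a series up to 38 µM; compound alone in buffer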
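Compound autofluorescence was read in 100 mM Tris pH 8.0 after 15 min at room temperature, ex 480 nm/em 540 nm. Intensities were converted to A488 dye-equivalent concentration using an on-plate six-point A488 standard curve.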
TSHR ag: activates the human thyroid stimulating hormone receptor | P16473 | HEK293-CNG-TSHR cells (CNG channel as cAMP sensor), membrane potential dye, cAMP | Potency, µM (doses to about 57.1 µM), for the others: top-dose activation, usual class: activators | 0.48% of 73,000 active | AID 926; active = well fitted activation curve of enough size with the parental cells flat; inconclusive = any curve in the parental cells; inactive = parental cells flat and receptor cells flat or falling; further: potency means the concentration at half of the fitted maximal effect; % of control where 0% means no effect; weak receptor curves with flat parental cells got no call and are not listed
Target sequence (P16473 whole entry, looked up): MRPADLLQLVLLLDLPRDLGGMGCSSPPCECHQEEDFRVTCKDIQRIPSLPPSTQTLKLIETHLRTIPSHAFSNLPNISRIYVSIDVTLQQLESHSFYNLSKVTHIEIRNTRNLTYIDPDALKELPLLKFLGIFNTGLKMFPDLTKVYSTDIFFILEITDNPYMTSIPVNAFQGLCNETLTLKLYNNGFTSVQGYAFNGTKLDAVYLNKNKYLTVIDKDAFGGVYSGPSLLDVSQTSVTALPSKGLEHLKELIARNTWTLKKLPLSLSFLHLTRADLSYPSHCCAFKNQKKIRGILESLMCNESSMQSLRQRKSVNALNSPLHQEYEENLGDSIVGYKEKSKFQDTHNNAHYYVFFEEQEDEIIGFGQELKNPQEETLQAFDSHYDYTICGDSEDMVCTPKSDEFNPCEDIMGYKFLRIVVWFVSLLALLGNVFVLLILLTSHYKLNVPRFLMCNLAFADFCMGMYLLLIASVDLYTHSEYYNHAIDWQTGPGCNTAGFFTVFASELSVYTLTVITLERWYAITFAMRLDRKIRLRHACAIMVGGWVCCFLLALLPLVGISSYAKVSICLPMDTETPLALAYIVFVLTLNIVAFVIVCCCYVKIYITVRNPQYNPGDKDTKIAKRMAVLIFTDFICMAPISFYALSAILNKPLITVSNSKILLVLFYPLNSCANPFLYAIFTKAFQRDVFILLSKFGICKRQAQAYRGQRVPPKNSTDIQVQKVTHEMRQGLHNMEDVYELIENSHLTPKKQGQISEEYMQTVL
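cAMP rise detected as CNG-channel membrane depolarization by fluorescent dye (emission 590 nm), 30 min after compound, following 60 min dye loading containing 100 uM RO 20-1724 at room temperature. Cells: TSHR/CNG HEK 293, with parental CNG HEK 293 as control.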
A647 autofl: compound autofluorescence in A647 spectral region; Compound fluorescence, A647 channel (570/671 nm), Tris buffer; max dye-equivalent concentration, M; 59,000 tested, under 10 active; AID 592; active means above 1 µM dye equivalent; inconclusive means 0.1 to 1 µM; inactive means 0.1 µM or less;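 further: values scaled relative to a standard on each plate; highest value over a series up to 38 µM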
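Compounds pinned into 100 mM Tris pH 8.0, 15 min at room temperature, then read with 570 nm excitation/671 nm emission filters. Fluorescence normalized to an on-plate six-point Alexa 647 standard curve, giving dye-equivalent concentration per compound concentration.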
AID923: qHTS Assay for Allosteric/Competitive Inhibitors of Caspase-1: Spectroscopic Profiling in AFC Spectral Region; compound fluorescence, AFC spectral region (405/520 nm); almost no hit is shown here; Potency, µM (doses to about 57.5 µM), inactives show at the top dose fluorescence increase, hits mostly activators; 1.1% of 75,000 active; AID 923, 2007; active means well fitted activation curve with a large enough effect; inconclusive means small, poorly fitted or top-dose-only effect;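 further: potency means the concentration at half of the fitted maximal effect; 0% is about no effect; scaled to a free AFC standard on each plate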
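Baseline compound fluorescence (AFC region, 405 nm ex/520 nm em) taken from the intercept of kinetic reads with 50 nM caspase-1 and 5 uM Ac-WEHD-AFC; normalized to an on-plate AFC standard curve; compounds titrated up to 57 uM.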
* marks the source's active call; other numbers are inactive results; i = inactive; ? = inconclusive; nt = not tested or not shown; [ ] = another dose, or the depositor's remark. Some of the compounds tested; rates above refer to the full screens.

Screens in order – Resorufin autofl, A488 fluor, TSHR ag, A647 autofl, AID923
Cc1nn(C(=O)C(C)N2C(=O)c3ccccc3C2=O)c(C)c1Br (configuration not stated)
→ nt, nt, 12.1%, nt, -0.7%
O=C(C1CC2CCC1C2)N1CCN(Cc2ccc3c(c2)OCO3)CC1 (configuration not stated)
→ i, i, 17.4%, 1e-09, -0.6%
C(=N\n1cnnc1)/c1ccc(N2CCOCC2)cc1
→ nt, nt, 4.1%, nt, 5.0%
O=C1CC(C(=O)Nc2ccccc2)N=C(N2CCCCC2)N1 (configuration not stated)
→ i, i, 9.9%, 4.63e-08, -0.7%
COCC(=O)Nc1ccccc1NC(C)=O
→ i, i, ?, 2.11e-08, -2.8%
CCn1cnc2sc(-c3ccccc3)cc2c1=O
→ i, i, -2.0%, 2.9e-09, -2.8%
COC(=O)c1cc(Br)c(=O)n(CCC2=CCCCC2)c1
→ i, i, ?, 4.3e-09, 2.6%
CCOC(=O)CSc1nccc(N(C)C)c1C#N
→ nt, nt, -0.3%, nt, 0.1%
CC(=O)Nc1cc(C(F)(F)F)ccc1N1CCOCC1
→ i, i, -0.7%, 2.47e-08, -1.6%
COc1ccc(CC(=O)N2CCCc3ccccc32)cc1OC
→ i, i, 2.4%, 1.89e-08, 0.7%
Cn1c(C(=O)NCCCN2CCN(c3ccccc3F)CC2)cc2c(=O)n(C)c3ccccc3c21
→ nt, nt, ?, nt, 0.0%
CCC(CC)C(=O)Nc1cccc(C(=O)Nc2ccc3c(c2)OCO3)c1
→ i, i, 1.6%, 1e-09, -1.0%
Cc1cc(C(=O)NCCC2=CCCCC2)c(C)o1
→ i, i, 13.5%, 1e-09, 1.8%
Cc1cc2ccccc2n1CCNC(=O)C(C)C
→ nt, nt, -1.4%, nt, 6.6%
Cn1c(NCc2ccco2)nc2c1c(=O)n(Cc1ccc(Cl)cc1Cl)c(=O)n2C
→ i, i, -24.0%, 4.4e-09, -2.6%
Cn1c(=O)c(=O)n(C)c2cc(S(=O)(=O)NCCc3ccccc3)ccc21
→ i, i, 1.1%, 1.04e-08, -2.2%
NC[C@H]1O[C@@H](n2cnc3c(=O)[nH]c(N)nc32)[C@@H](O)[C@@H]1O
→ i, i, 5.0%[11.4 µM], 2.1e-09, 0.7%[11.5 µM]
COc1ccc(-c2c3c(=O)n(C)c(=O)n(C)c3cn2C2CCCCC2)cc1
→ i, i, nt, 2.81e-08, -0.8%
O=C(NCc1cccnc1)C1CC(=O)N(c2ccc(Cl)cc2)C1 (configuration not stated)
→ i, i, 0.8%, 1.79e-08, -1.1%
Cc1[nH]nc2c1C(CCc1ccccc1)C(C#N)=C(N)O2 (configuration not stated)
→ i, i, nt, 7.96e-08, nt
CC(=O)Cc1nsc(NC(=O)c2ccc(COc3ccccc3)o2)n1
→ i, i, 13.7%, 1.39e-08, -0.9%
OCCSc1nncn1/N=C/c1c[nH]c2ccccc12
→ i, i, -2.3%, 1e-09, 0.6%
CN1CCN(c2ccnc(-c3cccc(NS(C)(=O)=O)c3)n2)CC1
→ i, i, 4.9%, 1e-09, -0.3%
Cc1ccc(N=Nc2c(O)ccc3cc(S(=O)(=O)O)ccc23)cc1
→ i, i, -3.5%[11.4 µM], 3.4e-08, 0.2%[11.5 µM]
CSCCC(NC(=O)c1cc(CC(C)C)oc1C)C(=O)O (configuration not stated)
→ i, i, 11.2%[11.4 µM], 1e-09, 0.1%
Cc1ccc(OCC(O)CN2CCN(Cc3ccc4c(c3)OCO4)CC2)c(C)c1 (configuration not stated)
→ i, i, 21.7%, 2.36e-08, 1.5%
COc1ccc(OC)c(CN2CCN(C(=O)c3cccs3)CC2)c1
→ i, i, 7.7%, 2.31e-08, 0.5%
Oc1ccc(-c2nc3cnccn3c2Nc2ccc3c(c2)OCCO3)cc1
→ nt, nt, 2.8%, nt, -1.2%
Nc1c(C(=O)N2CCOCC2)sc(=S)n1-c1ccccc1
→ i, i, -4.1%, 4.5e-09, -2.2%
COc1ccc(S(=O)(=O)Nc2ccc3c(c2)OCO3)cc1OC
→ i, i, 14.0%, 5.3e-09, -1.2%

An excerpt of these results, as tab-separated lines.
Structure	Resorufin autofl	A488 fluor	TSHR ag	A647 autofl	AID923
CC(=O)Cc1nsc(NC(=O)c2ccc(COc3ccccc3)o2)n1	i	i	13.7%	1.39e-08	-0.9%
OCCSc1nncn1/N=C/c1c[nH]c2ccccc12	i	i	-2.3%	1e-09	0.6%

Going on with the list:
Screens in order – Resorufin autofl, A488 fluor, TSHR ag, A647 autofl, AID923
Cc1ccc(-c2csc3nnc(SCC(=O)Nc4nsc(-c5ccccc5)n4)n23)cc1
→ i, i, 19.8%, 1e-09, 2.0%
CC(=O)N1CCN(C(=S)c2ccc(N(C)C)cc2)CC1
→ nt, nt, -3.2%, nt, -0.9%
Cc1cc(C)nc(NC(=O)CN2C(=O)c3ccccc3C2=O)n1
→ nt, nt, 0.7%[11.4 µM], nt, 0.2%
CSc1nc(-c2ccccc2)nc2[nH]ccc(=O)c12
→ nt, nt, 9.7%[11.4 µM], nt, 2.1%
CN1C(=O)c2ccccc2C(C(=O)NCCCN2CCCC2)C1c1c[nH]c2ccccc12 (configuration not stated)
→ i, i, -2.0%, 4.56e-08, 0.2%
OC(COc1cccc(OCC(O)CN2CCOCC2)c1)CN1CCOCC1 (configuration not stated)
→ i, i, 26.0%, 2.03e-08, -0.1%
COc1ccc(S(=O)(=O)N(C)CC(=O)NC2CCCC2)cc1Cl
→ i, i, -6.2%, 3.2e-09, 0.1%
C#CC(C)(C)NC(=O)c1ccccc1OC
→ i, i, -0.5%, 1e-09, 0.1%
Cc1ccc(OCC(=O)Nc2cc(-c3nn4c(C)nnc4s3)ccc2C)cc1
→ nt, nt, 6.3%, nt, 0.0%
O=C1CC(NCc2ccc3c(c2)OCO3)C(=O)N1CCc1ccccc1 (configuration not stated)
→ nt, nt, 12.2%, nt, 2.2%
CC(C)COc1ccc(C(=O)NCc2ccco2)cc1
→ i, i, 15.9%, 2.4e-09, -1.2%
CN(C)c1ccc(C2=NOC(CN3C(=O)c4ccccc4S3(=O)=O)C2)cc1 (configuration not stated)
→ i, i, 0.5%, 2.64e-08, -0.2%
O=C1CCC(=O)N1CN(C(=O)c1ccco1)c1ccccc1
→ i, i, -0.6%, 1.27e-08, 2.1%
CC(C)C(=O)Nc1ccc(Nc2ccccc2)cc1
→ nt, nt, -10.6%, nt, 0.8%
O=C(O)Cn1cc(C(=O)C2CC2)c2ccccc21
→ i, i, 8.9%, 1e-09, 0.0%
O=C(Cc1c(F)cccc1Cl)Nc1ccon1
→ i, i, 1.7%, 4.33e-08, 1.6%
O=S(=O)(c1ccc2ccccc2c1)N1CCN(S(=O)(=O)c2ccc3ccccc3c2)CC1
→ i, i, 1.4%[11.4 µM], 1e-09, -2.3%[11.5 µM]
CC1(C)C(=O)Nc2ccccc2N1C(=O)COC(=O)Cn1cnc2ccccc2c1=O
→ i, i, 0.4%, 1.19e-08, -0.8%
CC1(C)Oc2ccc(C(=O)NC3CC3)cc2N(CC(=O)N2CCOCC2)C1=O
→ i, i, 5.7%, 6.1e-09, -0.1%
COc1cccc(OCCn2ccnc2)c1
→ i, i, -9.3%, 1e-09, 2.2%
CCN(CC)c1cccc(O)c1
→ nt, nt, -1.2%, nt, 4.5%
COC(=O)C1=C(C)NC(C)=C([N+](=O)[O-])[C@H]1c1ccccc1C(F)(F)F
→ i, i, ?, 1e-09, -3.9%
CCN=c1sc(C(=O)NCCc2ccccc2)cc(=O)n1CC
→ i, i, -3.7%, 1.49e-08, 2.2%
Cn1cccc1Cc1nnc(SCC(=O)N2CCCC2)n1CCc1ccccc1
→ nt, nt, 8.1%, nt, -3.3%
CCN(CC)CCn1c(SCC(=O)NCc2ccco2)nc2c(sc3ccccc32)c1=O
→ i, i, ?, 2.8e-09, -0.2%
c1ccc(Nc2nc(N3CCCCC3)nc(N3CCNCC3)n2)cc1
→ nt, nt, 6.2%, nt, 0.3%
COc1ccc(NC(=O)c2cncc(Br)c2)c(S(=O)(=O)N2CCOCC2)c1
→ i, i, -3.5%, 1e-09, -1.5%
CN(C)c1ccc(C(=S)NCc2ccco2)cc1
→ i, i, -8.7%, 1.38e-08, 6.6%
CNC(=O)C1(C)C=CC2(CCCCC2)N1C(C)=O (configuration not stated)
→ nt, nt, 0.7%, nt, 0.0%
Cc1cccc(-c2c3c(=O)n(C)c(=O)n(C)c3cn2-c2ccccc2O)c1
→ i, i, 5.2%, 1e-09, -0.9%
O=C(NCc1ccccc1F)c1cccs1
→ i, i, 4.1%, 4.8e-09, -2.8%
CCc1nnc(NC(=O)CCC(=O)NCC2CCCO2)s1 (configuration not stated)
→ i, i, 10.6%, 1.04e-08, 2.4%
O=C1c2[nH]nc(-c3ccccc3O)c2C(c2cccc(Cl)c2)N1CC1CCCO1 (configuration not stated)
→ i, i, 17.6%, 5.7e-09, -0.4%
COc1ccccc1N1CCN(Cc2cc(Br)c(O)c3ncccc23)CC1
→ nt, nt, -11.8%, nt, 2.4%
CN(C)C(=O)Cn1c(SCC(=O)NC2CCCCC2)nc2ccccc21
→ i, i, 0.3%, 9.5e-09, 0.4%
COc1cccc(NC(=O)CSc2ccccn2)c1
→ i, i, 2.7%, 6.6e-09, 1.5%
COc1ccc(C(=O)n2c(-c3ccco3)nc3ccccc32)cc1
→ i, i, ?, 8.6e-09, 9.3%
O=C(O)CC(SCc1ccc(C(=O)O)o1)C(=O)O (configuration not stated)
→ i, i, nt, 1e-09, nt
CC(=O)OC[C@H]1O[C@@H](O/N=C(\C)CCN2CCCc3nc(C)c(C)cc32)[C@H](OC(C)=O)[C@@H](OC(C)=O)[C@H]1OC(C)=O
→ nt, nt, -1.6%[11.4 µM], nt, 3.9%[11.5 µM]
Cc1nc(CNS(=O)(=O)c2cc(F)ccc2F)cs1
→ i, i, -3.1%[11.4 µM], 4e-09, 1.7%
CCOC(=O)CC(=O)CSc1nnc2c(n1)[nH]c1ccccc12
→ i, i, ?, 6.6e-09, -0.2%
COC(=O)NCC(c1cccnc1)N1CCN(c2ccccc2F)CC1 (configuration not stated)
→ nt, nt, ?, nt, -1.8%
CC1CCN(CC[C@H]2CCCN2S(=O)(=O)c2cccc(O)c2)CC1
→ nt, nt, 10.5%, nt, 0.5%
O=C(CSc1nnc(CNC(=O)c2c(F)cccc2Cl)o1)NCc1ccc2c(c1)OCO2
→ i, i, 6.7%[11.4 µM], 1.4e-09, 1.4%
O=C(CSCc1cnn(-c2ccccc2)c1-n1cccc1)NCC1CCCO1 (configuration not stated)
→ i, i, 3.9%, 2.07e-08, -1.6%
Cc1ccc(CC(=O)Nc2nncs2)cc1
→ i, i, -4.8%, 1.6e-08, 1.2%
O=C(NCCCN1CCCCC1)c1ccc2c(c1)NC(=O)C(N1CCCCC1)S2 (configuration not stated)
→ i, i, 7.9%, 4.5e-09, 0.6%
COCCn1c(C)cc(C(=O)CSc2nnc(C)s2)c1C
→ i, i, 0.5%, 1e-09, -1.2%
COc1ccc2[nH]cc(C(=O)CN3CCN(C/C=C/c4ccccc4)CC3)c2c1
→ i, i, 5.0%, 2.55e-08, 0.2%
CCc1ccc(NC(=O)CSc2nc3cc(C(=O)OC)ccc3c(=O)n2Cc2ccco2)cc1
→ i, i, nt, 1e-09, -1.5%
CCn1c(SCC(=O)NCc2ccco2)nnc1-c1ccc(N)cc1
→ i, i, nt, 1e-09, nt
COC1(OC)N=C(N)C2(C#N)C(c3ccc(C)cc3)C12C#N (configuration not stated)
→ i, i, 27.2%, 1.3e-08, 1.4%
CCN1CCN(C(c2cc(OC)c(OC)c(OC)c2)c2nnnn2C(C)C)CC1 (configuration not stated)
→ i, i, -4.1%, 1e-09, 0.0%
O=c1[nH]cnc2c1C1(CCCC1)Cc1ccccc1-2
→ nt, nt, 13.1%, nt, -0.8%

Source: PubChem
